# Bioassay records (PubChem BioAssay)
# HTT prom inh: inhibits huntingtin promoter activity. hit rate 0.93% among 48,000. AID 1508623. HEK293 HTT promoter firefly luciferase reporter (activity 0% = vehicle and -100% = no light), 24 h. Potency, µM (doses to about 57.5 µM), for inactives: at the top dose activity change, negative = inhibition, hits mostly inhibitors; active = well fitted inhibition curve with a large enough effect; inconclusive = small, poorly fitted or top-dose-only effect; inactive = no such curve, though single readings can be large or run the other way; note: nearly all actives have a fitted effect of over 50% in size
#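 Quantitative HTS used concentration series of up to 57.5 uM final on HEK293 luciferase reporter cells, 24 h at 37 degrees C. Readout was Dual-Glo firefly luminescence.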
# PMP22 txn: modulators of PMP22 gene transcription in S16 Schwann cells; hit rate 2% among 43,000; Potency, µM (highest dose often 57.5 µM), for inactives: top-dose activity change, negative = inhibition, hits mostly inhibitors; S16 Pmp22-F2sN Schwann cells (luciferase reporters placed in the Pmp22 gene), FLuc/NLuc coincidence luminescence, 24 h; active = clear falling dose curves in both reporters; inconclusive = both reporters move, but less clearly or upward; inactive = either reporter flat; the % is the NLuc reporter signal; note: % is set by controls: 0 for no effect and ±100 for the full control effect; some results filed as inactive show a strong effect at the top dose
#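 qHTS, 1536-well. Cells seeded, compounds added by pin tool, 24 h 37C. Nano-Glo reagent 1 (lysis/FLuc), 10 min RT, read; Stop&Glo, 10 min RT, read NLuc.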
# * = called active by the depositor; ? = inconclusive; · = not tested or not shown; [ ] = remark or other dose. Potency is the fitted concentration of half-maximal effect.
SMILES,HTT prom inh,PMP22 txn
Cc1ccc(C(=O)NCC(c2ccc(Cl)cc2)N2CCCCC2)cc1 (centres undefined),-18%,-16%
Cc1ccc(NC(=O)c2cnc(N3CCCCC3)c3ccccc23)cc1Cl,-19%,-19%
Cc1ccccc1NC(=O)CSc1nc(-c2cccs2)nc2cc(=O)[nH]n12,-2%,?
CCN(CC)CCCNC(=O)CN1C(=O)CCn2nc(-c3cn(C)c4ccccc34)cc21,0%,-13%
COc1ccc(NS(=O)(=O)c2ccc3c(c2)CCN3C(=O)C2CC2)cc1OC,4µM*,?
COc1ccc(Cn2c(C(=O)O)c(CNCc3ccc(C)o3)c3ccc(OC)cc32)cc1,-20%,11%
COc1ccc(-c2cc(C(F)(F)F)nc(NCCc3ccccc3)n2)cc1OC,-14%,13µM*
CCc1ccc(NC(=O)c2sc(-n3nc(C)c(CCC(C)C)c3C)nc2C)cc1,-10%,5%
CN/C(=C\[N+](=O)[O-])NCCSCc1ccc(CN(C)C)o1,-4%,·
O=C(Nc1cc(-c2ccccc2F)nn1-c1ccccc1)c1ccccc1Br,?,-8%
CCOC(=O)CC(NC(=O)Cn1nnc(-c2ccc(Cl)cc2)n1)c1ccc(OC)cc1 (centres undefined),?,?
Cc1cccc(-c2nnc(SCC(=O)N3CCCc4ccccc43)o2)c1,-22%,3%
COCCn1c(CNC(=O)c2cccc(C)c2)nc2cccnc21,4%,-4%
COc1cc(NC(=O)CCNS(=O)(=O)c2ccc3c(c2)CCN3C(=O)C2CC2)cc(OC)c1,6%,-9%
COCCCNC(=O)CSc1nc(-c2ccc(OC)c(OC)c2)[nH]c1-c1ccc(F)cc1,-12%,-5%
Cc1ccc(CNC(=O)CCCn2c(=O)c3ccccc3n(CC(=O)Nc3ccc(C)c(C)c3)c2=O)cc1,0%,?
Cc1ccc2nc(-c3ccc(Cl)c(NC(=O)COc4ccc([N+](=O)[O-])cc4)c3)oc2c1,-1%,?
CCC(=O)N1CCc2cc(S(=O)(=O)CCC(=O)N3CCN(c4ccc(Cl)cc4)CC3)ccc21,?,17µM*
Cc1ccc(S(=O)(=O)N2CCOCC2)cc1C(=O)Nc1ccccc1C(=O)O,-1%,7%
Cc1ccc2c(c1)N(CC(=O)NCc1ccccc1Br)C(=O)c1cccnc1O2,-2%,-10%
COc1ccc(C(=O)c2cn(CC(=O)Nc3ccc4c(c3)OCO4)c3ccc(OC)cc3c2=O)cc1,-16%,-11%
CCc1ccc(NC(=O)c2nn(-c3ccc(OC)cc3)c(=O)c3c2c2ccccc2n3C)cc1,-27%,?
Cc1ccc(OCc2nc(-c3ccc(C(=O)NCc4ccc(OC(C)C)cc4)cc3)oc2C)cc1,?,-5%
CCCCNc1c(C(=O)OCC)c(C)nc2c1cnn2CC,-16%,·
COc1cc(-c2cc(OC)c3c(C)oc(C)c3c(=O)c2)ccc1OC(=O)c1ccc(C)cc1,2%,?

# The list goes on; it opens with the 6 that closed the last part.
SMILES,HTT prom inh,PMP22 txn
Cc1ccc2c(c1)N(CC(=O)NCc1ccccc1Br)C(=O)c1cccnc1O2,-2%,-10%
COc1ccc(C(=O)c2cn(CC(=O)Nc3ccc4c(c3)OCO4)c3ccc(OC)cc3c2=O)cc1,-16%,-11%
CCc1ccc(NC(=O)c2nn(-c3ccc(OC)cc3)c(=O)c3c2c2ccccc2n3C)cc1,-27%,?
Cc1ccc(OCc2nc(-c3ccc(C(=O)NCc4ccc(OC(C)C)cc4)cc3)oc2C)cc1,?,-5%
CCCCNc1c(C(=O)OCC)c(C)nc2c1cnn2CC,-16%,·
COc1cc(-c2cc(OC)c3c(C)oc(C)c3c(=O)c2)ccc1OC(=O)c1ccc(C)cc1,2%,?
CCCn1cc(S(=O)(=O)c2ccccc2)c(=O)c2cc(F)c(N3CCCC(C)C3)cc21 (centres undefined),-7%,?
COc1ccc(-c2nc(C)c(CCNC(=O)C(=O)Nc3ccccc3OC)s2)cc1,-3%,-46%
COc1ccc(NC(=O)CSC2=Nc3ccccc3C3=NC(CCC(=O)NCCc4ccccc4)C(=O)N23)c(OC)c1 (centres undefined),-33%,?
O=C(NC1CCCCC1)c1ccc(Cn2c(SCc3ccccc3)nc3cccnc32)cc1,-2%,-13%
CO[C@H]1/C=C\O[C@@]2(C)Oc3c(C)c(O)c4c(O)c(c5c(nc6cc(C)ccn65)c4c3C2=O)NC(=O)C(C)=CC=C[C@H](C)[C@H](O)[C@@H](C)[C@@H](O)[C@@H](C)[C@H](OC(C)=O)[C@H]1C,-5%,·
Cc1ccccc1CNC(=O)c1ccc2c(c1)c(C)c(C)n2C,2%,0%
CC(=O)c1cc(-c2ccc(F)cc2)n(CC(=O)NC2CCC(C)CC2)c1C (centres undefined),-28%,12%
Cc1ccc(NC(=O)CSc2nnc3ccc4ccccc4n23)cc1,-13%,13%
CCc1nnc(SCC(=O)N(C)c2ccccc2)c2cc3sccc3n12,2%,13µM*
CCc1cccc(N(C)C(N)=Nc2cccc3ccccc23)c1,-13%,·
CCCn1ccc2c(OCC(=O)Nc3ccc(OC)c(OC)c3)cccc2c1=O,-16%,?
Cc1ccc2c(c1)cc(C(=O)NCc1ccccc1C)n2C,-23%,-4%
Cc1cccc(-c2nc3ccccc3n3c(-c4ccccc4)c4c(=O)n(C)c(=O)n(C)c4c23)c1,-12%[11.5 µM],-6%
Cc1cc(-c2ccc(C)c(S(=O)(=O)Nc3ccccn3)c2)on1,-21%,32%
O=C(Nc1ccc(F)cc1F)c1cc(-c2ccccc2O)no1,-13%,-17%
Cc1nc(N2CCCC2)ncc1C(=O)NCc1cccc(Cl)c1,-20%,-1%
O=C1O[C@H](CO)[C@@H](O)[C@H](O)[C@H]1O,-1%,·
CCOc1cccc(C(=O)Nc2ccc(NC(=O)c3ccc(Br)cc3)cc2)c1,-32%,4%
Cc1ccc(CNC(=O)C(C)n2ccc3cc(S(=O)(=O)N4CCCC4)ccc32)cc1 (centres undefined),?,?
C[C@]12CCC(=O)C=C1CC[C@@H]1[C@@H]2[C@@H](O)C[C@@]2(C)[C@H]1CC[C@]2(O)C(=O)CO,4%,·
CCOc1ccccc1CNC(=O)Cn1cc2c(n1)-c1c(oc(C(=O)N3CCCC3)c1C)CC2,?,?
CC(C)c1nnc(NC(=O)c2nc(SCc3ccc(F)cc3)ncc2Cl)s1,-21%,-4%
O=C(Nc1nc2c(F)cccc2s1)c1ccc2c(c1)OCCO2,?,?
COc1ccc(NC(=O)c2cc(-c3ccccc3O)no2)cc1,4%,3%
Cc1ccc(C)c(Cn2c3ccccc3c3cnn(CC(=O)NC(C)CCc4ccccc4)c(=O)c32)c1 (centres undefined),?,?

# Full records, quoted from the list. Order of values: HTT prom inh | PMP22 txn
# Cc1ccc(NC(=O)CSc2nnc3ccc4ccccc4n23)cc1 as listed: -13% | 13%
# CCCn1ccc2c(OCC(=O)Nc3ccc(OC)c(OC)c3)cccc2c1=O as listed: -16% | ?
# O=C(NC1CCCCC1)c1ccc(Cn2c(SCc3ccccc3)nc3cccnc32)cc1 as listed: -2% | -13%
# CCCn1cc(S(=O)(=O)c2ccccc2)c(=O)c2cc(F)c(N3CCCC(C)C3)cc21 (centres undefined) as listed: -7% | ?
# Cc1cc(-c2ccc(C)c(S(=O)(=O)Nc3ccccn3)c2)on1 as listed: -21% | 32%

# Next part
SMILES,HTT prom inh,PMP22 txn
Cc1ccc(-c2noc(-c3nnn(CC(=O)Nc4cc(C)cc(C)c4)c3N)n2)cc1,1%,-4%
CCOC(=O)c1c(C)[nH]c(C)c1S(=O)(=O)N(C)CC(=O)Nc1ccc(C)c(F)c1,-14%,?
Cc1cccc(CNC(=O)C2CCC(CNS(=O)(=O)c3ccc4c(c3)CCCC(=O)N4)CC2)c1 (centres undefined),-14%,-14%
Cc1cc(C)c2oc(-c3ccc(NC(=O)COc4ccccc4C)cc3)nc2c1,40%[activator],?
Cc1ccc(NC(=O)CN2C(=O)C(c3ccc(F)cc3)=NC23CCCCCC3)c(C)c1,?,?
Cc1cccc(OCC(=O)OCc2cc(=O)n3nc(C4CCCCC4)sc3n2)c1,0%,12%
CCC1CN(C(=O)N2CCC(C(=O)NCCc3ccc(C)cc3)CC2)c2ccccc2O1 (centres undefined),-27%,-12%
O=C(Nc1ccc(Oc2ccccc2)cc1)c1ccc(F)c(S(=O)(=O)N2CCN(c3cccc(Cl)c3)CC2)c1,?,5%
Clc1cccc(CSc2nnc(C3CCNCC3)o2)c1,3%,-5%
Cc1ccc(C)c(NC(=O)CN2C(=O)COc3ccc(Cl)cc32)c1,-28%,?
Cc1ccc(C2N=C(N)Nc3nc4ccccc4n32)cc1 (centres undefined),-12%,-10%
Cc1noc(-c2ccc(-c3noc(-c4cccc(F)c4)n3)cc2)n1,0%,-7%
CCOCCCN1C(=O)c2[nH]nc(-c3ccccc3O)c2C1c1ccc(CC)cc1 (centres undefined),?,-23%
CC1=C(C(=O)Nc2ccccc2C)C(c2ccccn2)n2ncnc2N1 (centres undefined),-3%,-6%
Nc1ccc(C(=O)O)c(O)c1,4%,·
Cn1nnnc1SCCCNCc1ccc(-c2ccc(F)c(Cl)c2)o1,-14%,-25%
COC(=O)c1nnn(CC(=O)Nc2ccc(Br)c(C)c2)c1N,-2%,-13%
CC1=C(C(=O)Nc2cccnc2)C(c2ccccc2)n2nc(SCc3ccccc3)nc2N1 (centres undefined),-3%,0%
COc1ccc(CCn2c3c(c(=O)[nH]c2=O)C(NC(=O)c2ccccc2F)(C(F)(F)F)C(=O)N3)cc1OC (centres undefined),-10%,10%
O=C(COC(=O)C(Cc1c[nH]c2ccccc12)NC(=O)c1ccc(Br)cc1)c1ccc(Cl)cc1 (centres undefined),-23%,-5%
CCc1noc2nc(C)n(CC(=O)O)c(=O)c12,-17%,-3%
COc1ccc(-c2nc(Cn3c(=O)cc(C)c4c(C)nn(-c5ccccc5)c43)c(C)o2)cc1OC,-5%,-13%
Cc1ccc(C)c(NC(=O)Nc2cc3c(cc2N2CCCCC2)n(C)c(=O)n3C)c1,?,?
CCCCn1c(CNC(=O)C23CC4CC(CC(C4)C2)C3)nnc1SCC(=O)Nc1ccccc1,1%,-6%
Cc1oc(-c2ccccc2)nc1Cn1c(=O)cc(-c2ccccc2)c2c(C)nn(C)c21,-10%,2%

# (listing goes on)
SMILES,HTT prom inh,PMP22 txn
CCN(CC)c1nc2c(S(=O)(=O)c3cccc(Cl)c3)nnn2c2ccsc12,?,?
COC(=O)c1ccccc1NC(=O)NCCc1c(C)nn(C)c1C,-12%,-7%
COc1cccc(CCNC(=O)c2ccc(Cn3c(SCc4ccccc4)nc4cccnc43)cc2)c1,-17%,?
Cc1cccc(CNC(=O)C2CCN(S(=O)(=O)c3cccc4nonc34)CC2)c1,?,-21%
COc1ccc(C(CC(=O)O)NC(=O)c2cc3ccccc3oc2=O)cc1OC (centres undefined),-2%,-2%
O=c1c2oc3ccccc3c2n(Cc2cccc(F)c2)c(=O)n1Cc1ccc2c(c1)OCO2,-12%,-22%
CCOc1ccc(NC(=O)c2ccc(F)c(S(=O)(=O)N(Cc3ccc(C(=O)OC)cc3)Cc3ccc(OC)c(OC)c3)c2)cc1,-26%,-4%
Cc1cccc(N2CCN(S(=O)(=O)c3cc(C(=O)Nc4ccccc4Cl)ccc3F)CC2)c1C,?,?
COc1ccc(C(=O)N2CC(=O)Nc3ccc(C)cc3C2c2ccc(F)cc2)c(OC)c1 (centres undefined),-18%,0%
Cc1c(C(=O)Nc2ccccc2Br)oc2ccc(S(=O)(=O)N3CCCCCC3)cc12,-12%,?
COc1cccc(CNC(=O)Cn2c(SCC(=O)Nc3ccc(C)c(C)c3)nc3ccccc32)c1,-21%,?
CCc1ccc2oc(-c3cccc(NC(=O)c4ccc(-c5cccc([N+](=O)[O-])c5)o4)c3)nc2c1,46%[activator],-28%
Cc1ccc(N2C(=O)N(Cc3cccc(Cl)c3)c3ccccc3S2(=O)=O)cc1,?,-5%
Cc1ccc(-n2c3nc(=O)[nH]c(=O)c-3cc3c(C)nn(-c4ccccc4)c32)cc1Cl,-4%,-13%
COc1ccc(CCNC(=O)c2ccc3c(c2)CCN3S(=O)(=O)c2ccc(C)cc2)cc1,?,?
O=c1oc2ccc(Br)cc2cc1-c1csc(-c2ccc(Cl)cc2)n1,4%,6%
COc1ccc(OC)c(CCNC(=O)c2ccc3c(c2)N(Cc2ccccc2)CCS3)c1,?,?
O=c1c2ccccc2n2c(-c3ccccc3O)nnc2n1Cc1ccc(F)cc1,-17%,-2%
COc1ccc(Cn2cc(C(=O)c3ccc(C)cc3)c(=O)c3cc(OC)c(OC)cc32)cc1,-8%,?
COc1ccc(NC(=O)CN(C)S(=O)(=O)c2ccc3nc(C)sc3c2)cc1Cl,?,?
CCN1CCc2c(sc(-n3cccc3)c2C(C)NC(=O)Nc2ccc(C(=O)OC)cc2)C1 (centres undefined),-20%,?
CCCN(CCC)C(=O)CSc1nnc2cc(C)c3cc(C)cc(C)c3n12,-8%,-1%
Nc1ncc(S(=O)(=O)N2CCN(c3ccccc3)CC2)cn1,-10%,14%
O=c1c2cc3c(cc2nc2sc(Nc4cccc([N+](=O)[O-])c4)nn12)OCO3,0%,-24%
CCOCCCNC(=O)CCC(=O)NNc1nc2ccccc2c2nc(C)nn12,-7%,-5%
O=C(Nc1ccc2c(c1)CCCN2C(=O)c1cccs1)c1ccc(F)c(F)c1,?,?
COc1ccc(-n2nnnc2SCC(=O)NCCc2ccccc2)cc1,-4%,-3%
